RecA intein inh – blocks M. tuberculosis RecA intein splicing; cell-free RecA intein splicing, fluorescence; 0.75% of 290,000 active; P9WHJ3; inhibition, %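 (about 9 µM by stock and volumes)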; in the data active = inhibition above about 30%; inconclusive = no clear call, values can overlap the other calls;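 note: 0% = vehicle wells and 100% = reference inhibitor control wells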
Target sequence (P9WHJ3 whole entry, looked up): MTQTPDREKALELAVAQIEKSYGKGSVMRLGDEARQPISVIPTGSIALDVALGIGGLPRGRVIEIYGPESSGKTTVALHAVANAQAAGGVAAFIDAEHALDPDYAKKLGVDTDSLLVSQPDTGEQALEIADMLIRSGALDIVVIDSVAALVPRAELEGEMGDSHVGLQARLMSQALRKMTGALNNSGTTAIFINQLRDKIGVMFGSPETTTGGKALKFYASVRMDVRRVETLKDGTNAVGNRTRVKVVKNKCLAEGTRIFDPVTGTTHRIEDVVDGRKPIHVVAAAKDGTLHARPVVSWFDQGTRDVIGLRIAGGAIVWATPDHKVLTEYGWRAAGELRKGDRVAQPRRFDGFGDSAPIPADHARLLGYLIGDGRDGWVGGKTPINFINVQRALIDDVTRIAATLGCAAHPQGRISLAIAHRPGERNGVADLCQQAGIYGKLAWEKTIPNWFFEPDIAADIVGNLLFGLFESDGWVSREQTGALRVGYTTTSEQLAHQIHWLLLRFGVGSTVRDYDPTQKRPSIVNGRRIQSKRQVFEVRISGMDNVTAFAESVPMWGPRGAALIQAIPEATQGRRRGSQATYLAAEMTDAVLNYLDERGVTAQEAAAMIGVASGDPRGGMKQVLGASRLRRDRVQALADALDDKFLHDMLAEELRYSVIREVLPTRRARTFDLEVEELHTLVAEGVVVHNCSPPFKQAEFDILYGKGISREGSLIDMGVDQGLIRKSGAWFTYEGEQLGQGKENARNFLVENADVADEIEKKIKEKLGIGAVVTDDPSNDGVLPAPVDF
Mtb growth – M. tuberculosis H37Rv growth inhibitors, H37Rv strain (AID 1626). M. tuberculosis H37Rv growth inhibition; higher % means a stronger effect. one-dose inhibition, % at 10 µM; IC50 in µM for titrated hits. 0.95% of 220,000 active;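 active = confirmed in a dose series; inconclusive = inhibition above 80% but not taken into the dose series; inactive = below 80% or under 30% at every dose of the series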;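 note: bacteria incubated seven days before Alamar blue readout; 0% = bacteria only wells and 100% = bacteria with antibiotic wells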
Mtb betalactam – beta-lactam sensitization of Mtb H37Rv. M. tuberculosis H37Rv growth with meropenem, percent inhibition; hits of this screen are not shown here. inhibition, % at 25 µM. 0.27% of 330,000 active;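 active = about 74% or more and at least 40 points above the plate without the antibiotic, then above 30% in a dose series; inconclusive = first-round hits that could not be retested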;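 note: growth measured after seven days incubation then overnight dye step; 0% = bacteria only wells and 100% = bacteria with antibiotic; twin plates without the antibiotic show which effects depend on it; some results filed as inactive read as strong as hits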
YopH PTP inh – blocks Yersinia enterocolitica YopH tyrosine phosphatase | 0.16% of 140,000 active | fluorescence Ex485/Em525 | AID 898 | inhibition, %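 (about 10 µM by stock and volumes)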;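 active = inhibition of 50% or more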;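 note: controls were vehicle for no effect and minimum signal wells for full effect; inactives centre near -20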
Arbovirus inh – antivirals against arbovirus infection; arbovirus infection cell-based antiviral screen; inhibition, % at 10 µM; 0.37% of 200,000 active; AID 1251;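 active = inhibition from about 30%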;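 note: bluetongue infection of BSR cells; cell survival read as ATP light after 72 h; 0% = infected wells without compound and 100% = uninfected wells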
Arbovirus inh repeat – further read-out of Arbovirus inh, marked with its call; inhibition, %; measured here: 10K subset replicate screen; many hits read low in the repeat;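 first of two repeat runs on a subset; 0% = infected and 100% = uninfected wells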
An asterisk follows results filed as active; ? = inconclusive; . = no result given. Some of the compounds tested; count on the stated rates, not on these rows.

SMILES | RecA intein inh | Mtb growth | Mtb betalactam | YopH PTP inh | Arbovirus inh | others
CCC12CN3CC(CC)(CN(C1)C3c1cccnc1)C2=O (centres undefined) | -3.1 | -11% | -16 | 13 | 2
COc1ccc(C(CNC(=O)c2ccco2)N2CCCCC2)cc1 (centres undefined) | 0.1 | -3% | -13 | . | 6
CC(C)C(=O)Nc1c(-c2ccc(Cl)cc2)c(=O)c2ccccc2n1C | -1.8 | . | -1 | . | .
CCOC(=O)c1ccc(NC(=O)Cn2ncc(Cl)c(Cl)c2=O)cc1 | 62* | ? | 100 | -7 | -38
Cc1nc2c(ncn2-c2ccccc2)c(=O)n1NC(=O)CN1CCOCC1 | 1.6 | -3% | 4 | . | .
COc1ccc(/C=C/C(=O)c2nc3ccccc3n2CC(=O)c2ccc(OC)cc2)cc1 | 6.8 | -13% | 3 | -29 | -4
CO/N=C/c1ccc(Oc2ccc(C)cc2)nc1 | 0.2 | -3% | -6 | -30 | 1
COC(=O)c1c[nH]n2c(=O)c(Cl)c(C)nc12 | 2.2 | -3% | 10 | -14 | 7
CSc1nc(Cl)cc(=O)[nH]1 | -2.8 | 1% | -3 | . | .
Cc1sc2ncn(CC(=O)N3CCOCC3)c(=O)c2c1-c1ccccc1 | -1.2 | 19% | -7 | . | 6
O=C(NC(c1ccccc1)C(Cl)(Cl)Cl)c1ccccc1 (centres undefined) | -0.8 | 3% | -2 | -22 | 6
CCCCc1noc2c1/C(=N\O)CC(c1ccccc1)C2 (centres undefined) | 3.1 | 0% | -1 | -20 | -4
COc1cnc(-c2ccccn2)nc1N(C)C | -15 | ? | 86 | . | -19
CC(C)CNC(=O)c1cccc(NC(=O)CSc2ccc(Cl)cc2)c1 | -1.2 | -1% | -1 | -23 | -10
CCCCOP(=O)(OCCCC)C(Nc1ccc(C(=O)OCC)cc1)c1ccncc1 (centres undefined) | 5.3 | . | 87 | . | .
C/C(=N/NC(=O)CNC(=O)c1ccccn1)c1cccc([N+](=O)[O-])c1 | 0.5 | -1% | -5 | . | 0
Cc1ccc(NC(=O)c2cccc(OCc3c(C)noc3C)c2)c(C)c1 | 17 | 0% | -9 | -31 | -14
CCOC(=O)C(C)Sc1nnc(NC(=O)c2ccc3c(c2)OCO3)s1 (centres undefined) | 4.8 | ? | 98 | . | 4
O=C(O)C1CCCN1S(=O)(=O)c1cccs1 (centres undefined) | . | . | . | -29 | 6
Cc1sc(NC(=O)CN2CCOCC2)nc1-c1ccc2c(c1)CCN2S(=O)(=O)c1ccccc1 | 8.9 | 5% | 9 | -25 | -14
COc1cccc(CN(C)C(=O)c2ccc3nccnc3c2)c1 | -5.3 | 2% | 41 | -2 | 2
COc1ccc(C(=O)Nc2ccc(C(=O)Nc3cccnc3)cc2)cc1 | -3.1 | . | 2 | . | .
O=C(NCc1ccncc1)C1CCN(S(=O)(=O)c2ccccc2)CC1 | 0.2 | . | -6 | . | .
O=S(=O)(/N=C(/Nc1ccccc1)c1ccccc1)c1cccs1 | 3.0 | -8% | -3 | 13 | 1
N#Cc1nc(Cc2cccc3ccccc23)oc1NCCCN1CCOCC1 | -4.5 | 7% | 4 | -50 | 7
CCCCCCCCCCC(=O)NNC(=O)c1c(O)c2ccccc2n(CC)c1=O | -0.1 | 35% | 0 | . | -13
Cc1ccc(S(=O)(=O)CC(c2ccccc2)N2CCOCC2)cc1 (centres undefined) | -0.1 | -3% | -8 | 2 | 8
CC(=O)N1c2ccccc2C(C)(c2ccccc2)CC1(C)C (centres undefined) | 3.6 | 3% | -2 | 3 | -10
O=C(COc1ccccc1)Nc1nnc(C23CC4CC(CC(C4)C2)C3)s1 | 0.5 | 4% | -4 | -29 | -1
CCOC(=O)N1CCN(C(=O)CNC(=O)c2ccc(Cl)cc2)CC1 | -1.6 | . | -4 | . | .
COc1ccc(Cl)cc1Nc1nc(-c2sc(NC(=O)c3ccco3)nc2C)cs1 | 4.0 | 27% | 50 | 3 | -21
Cc1cc(NC(=O)CSc2nc3c([nH]c4ccccc43)c(=O)n2-c2ccccc2F)no1 | 3.2 | . | -4 | . | .
Cc1ccccc1NC(=S)N1CCN(C(=O)c2ccco2)CC1 | 2.5 | 2% | -6 | . | -2
O=C(c1ccccc1)c1nccn1-c1ccc(Cl)nn1 | . | -7% | -2 | . | .
O=C1Nc2ccccc2N2CCCC12 (centres undefined) | -37 | -9% | 0 | . | 0
CCN(CC)c1ccc(/C=N/NC(=O)c2ccco2)c(O)c1 | -95 | -8% | 11 | . | .
O=C(N/N=C/c1cc(Br)c(O)c(Br)c1)c1cccc(C(F)(F)F)c1 | -0.7 | 2% | 12 | 4 | -4
COc1ccc(-c2ocnc2C(=O)N2CCN(Cc3cccnc3)CC2)cc1 | -1.5 | -13% | -8 | . | .
CCc1ccc(C(=O)NC(CCSC)C(=O)O)cc1 (centres undefined) | 4.5 | 4% | 6 | -25 | -2
CNC(=O)c1ccsc1NC(=O)c1ccc2c(c1)CCCC2 | 6.3 | . | -1 | -34 | -8

7 compounds picked at random from the list so far, as already listed:
SMILES | RecA intein inh | Mtb growth | Mtb betalactam | YopH PTP inh | Arbovirus inh | others
CCCCCCCCCCC(=O)NNC(=O)c1c(O)c2ccccc2n(CC)c1=O | -0.1 | 35% | 0 | . | -13
COC(=O)c1c[nH]n2c(=O)c(Cl)c(C)nc12 | 2.2 | -3% | 10 | -14 | 7
CCCCOP(=O)(OCCCC)C(Nc1ccc(C(=O)OCC)cc1)c1ccncc1 (centres undefined) | 5.3 | . | 87 | . | .
CC(C)C(=O)Nc1c(-c2ccc(Cl)cc2)c(=O)c2ccccc2n1C | -1.8 | . | -1 | . | .
CCC12CN3CC(CC)(CN(C1)C3c1cccnc1)C2=O (centres undefined) | -3.1 | -11% | -16 | 13 | 2
COc1ccc(C(CNC(=O)c2ccco2)N2CCCCC2)cc1 (centres undefined) | 0.1 | -3% | -13 | . | 6
CO/N=C/c1ccc(Oc2ccc(C)cc2)nc1 | 0.2 | -3% | -6 | -30 | 1

Next part:
SMILES | RecA intein inh | Mtb growth | Mtb betalactam | YopH PTP inh | Arbovirus inh | others
Cc1ccc(NC(=O)CN(C)C(=O)COc2cc(F)ccc2[N+](=O)[O-])cc1 | 1.6 | -10% | -5 | . | 1
O=C(O)c1ccc(Cn2ccc3ccccc32)o1 | 2.4 | . | -13 | . | .
O=C(CSc1ccc2nnc(-c3ccccc3)n2n1)NCc1ccco1 | -1.0 | 0% | -7 | -35 | 2
O=C(Nc1ccccn1)c1cc(-n2cnnc2)ccc1Cl | -1.9 | 3% | -9 | -33 | 4
O=C(CCN1C(=O)/C(=C\c2cccc(Br)c2)SC1=S)NCCCN1CCOCC1 | 6.1 | . | 7 | . | .
CCCNC(=O)N1CCN(S(C)(=O)=O)CC1 | -0.5 | 2% | 2 | . | 8
CC(C)(C)NC(=O)CN(CCc1ccccc1)C(=O)c1csnn1 | 3.2 | -5% | -5 | . | 2
CC(=O)Nc1ccc(SCC(=O)c2cc(C)n(CC(F)(F)F)c2C)cc1 | -3.8 | 7% | . | 3 | 7
C=CCn1c(C)nnc1SCC(=O)N1CCN(S(=O)(=O)c2ccccc2)CC1 | -7.6 | 11% | -5 | . | .
COc1ccc(CCNC(=O)CCS(=O)(=O)c2ccc3c(c2)oc(=O)n3C)cc1OC | -1.2 | . | -3 | . | .
COc1ccc(-c2cc(C(F)(F)F)n3ncc(C(=O)N(C)Cc4ccccc4)c3n2)cc1 | -7.5 | 10% | -2 | . | -6
COc1ccc(CCNS(=O)(=O)c2ccccc2[N+](=O)[O-])cc1OC | -1.3 | . | -4 | . | .
N#Cc1c(NC(=O)CSc2nnnn2C2CCCC2)sc2c1CCCC2 | 7.3 | -2% | 64 | -20 | 4
Cc1cc(C)nc(S/C=C/C(=O)c2ccccc2F)n1 | 4.4 | 4% | 32 | . | .
O=C1CC2(CCN(C(=O)c3cccc(Cl)c3)CC2)Oc2ccccc21 | 1.3 | . | -9 | . | .
O=C(O)C1CC=CCC1C(=O)Nc1ccc(S(=O)(=O)N2CCCc3ccccc32)cc1 (centres undefined) | -0.4 | -3% | -6 | -41 | 8
O=C(Nc1ccc(Cl)c(Cl)c1)c1ccncc1 | 2.8 | -1% | 2 | 3 | 16 | Arbovirus inh repeat=13
CN(C)S(=O)(=O)c1ccc2c(c1)nc(CCC(=O)NCCc1ccc(Cl)cc1)n2C | 1.6 | . | 5 | . | .
O=C(CC1(O)C(=O)N(Cc2ccccc2)c2ccccc21)c1ccncc1 (centres undefined) | 3.3 | 3% | 16 | -32 | -14
O=C1c2cccc(OCc3ccc(F)cc3)c2CCN1Cc1ccccc1 | 14 | . | 4 | -25 | 2

The final four compounds of the part before are carried over, then new ones follow:
SMILES | RecA intein inh | Mtb growth | Mtb betalactam | YopH PTP inh | Arbovirus inh | others
O=C(Nc1ccc(Cl)c(Cl)c1)c1ccncc1 | 2.8 | -1% | 2 | 3 | 16 | Arbovirus inh repeat=13
CN(C)S(=O)(=O)c1ccc2c(c1)nc(CCC(=O)NCCc1ccc(Cl)cc1)n2C | 1.6 | . | 5 | . | .
O=C(CC1(O)C(=O)N(Cc2ccccc2)c2ccccc21)c1ccncc1 (centres undefined) | 3.3 | 3% | 16 | -32 | -14
O=C1c2cccc(OCc3ccc(F)cc3)c2CCN1Cc1ccccc1 | 14 | . | 4 | -25 | 2
O=C(CNC(=O)c1cccc(F)c1)N/N=C/c1cccs1 | 1.8 | . | -3 | . | .
O=c1c2c([nH]c3ccccc13)CCCC2 | -4.0 | 5% | 10 | -8 | 1
C=CCN(C(=O)CSc1nc2c(sc3ccccc32)c(=O)n1CCN(CC)CC)c1ccccc1 | 3.9 | 11% | 96 | . | -3
Clc1cccc2c1CCN(Cc1nc(-c3cnccn3)no1)C2 | 1.5 | -2% | -1 | . | -22
CCn1c(SCC(=O)OC2CCCCC2)nc2ccccc2c1=O | 16 | 7% | 98 | -38 | -4
CS(=O)(=O)CCC(C(=O)OCc1ccc(Br)cc1)N1C(=O)c2ccccc2C1=O (centres undefined) | -0.9 | -3% | 8 | -22 | 3
O=C(Nc1ccc(S(=O)(=O)N2CCOCC2)cc1)C1CCN(S(=O)(=O)c2ccccc2)CC1 | 1.1 | . | -3 | . | .
ClC(CCN1CCN(Cc2ccccc2)CC1)c1ccccc1 (centres undefined) | -5.2 | . | -1 | . | .
C=CCN1C(=O)/C(=C\C=C2\N(C)c3ccccc3C2(C)C)SC1=S | 5.1 | 4% | 9 | -25 | -11
Cc1onc(C(=O)Nc2ccc(OC(F)(F)F)cc2)c1[N+](=O)[O-] | -14 | . | 9 | . | .
COc1cc(CN2CC(C)CC(C)C2)cc([N+](=O)[O-])c1O (centres undefined) | 0.7 | 1% | -2 | 5 | -2
CCOc1ccccc1NC(=O)N1CCC(c2nc3ccccc3[nH]2)CC1 | 2.5 | -6% | . | -31 | 3
COc1ccc(N(C(=O)c2snc(C(N)=O)c2N)C(C(=O)NCc2ccccc2)c2ccc(F)cc2)c(OC)c1 (centres undefined) | -1.6 | . | 4 | . | .
NC(=O)NC(=O)CN1c2cccc3cccc(c23)S1(=O)=O | 0.2 | . | 2 | . | .
O=c1c2c(nc3n1CCCCC3)-c1ccccc1CC21CCCCC1 | 9.6 | 7% | 23 | -3 | -3
Cc1ccc(S(=O)(=O)N2CCC(C(=O)Nc3ccc4c(c3)COC4=O)CC2)cc1 | 0.5 | 4% | 0 | -26 | 8
C=CCn1c(CNC(=O)c2ccccc2F)nnc1SCC(=O)NC(C)c1ccccc1 (centres undefined) | 0.5 | -5% | 21 | . | -2
CS(=O)(=O)N1CCN(c2ccc(C(=O)N3CCOCC3)cc2[N+](=O)[O-])CC1 | -2.9 | 0% | -9 | . | 4
O=C(O)CCCC(=O)N1N=C(c2ccco2)CC1c1ccco1 (centres undefined) | 2.7 | . | -21 | . | .
O=C(CN(C(=O)c1csnn1)c1ccccc1Cl)NCCc1ccccc1 | 1.7 | . | 8 | . | .
Cc1ccc(S(=O)(=O)N(C)CC(=O)O/N=C(\N)c2ccccn2)cc1 | -2.0 | -8% | 2 | -49 | -5
O=C(/C=C/c1ccco1)NC(=S)Nc1ccccc1O | -0.8 | 1% | 35 | . | -13
O=C(N/N=C/c1c(O)n(C2CC2)c(=S)[nH]c1=O)c1ccccc1O | 7.0 | -7% | 7 | -39 | 19

Three structures out of the list, ordered by number of heavy atoms, lowest first:
SMILES | RecA intein inh | Mtb growth | Mtb betalactam | YopH PTP inh | Arbovirus inh | others
Cc1onc(C(=O)Nc2ccc(OC(F)(F)F)cc2)c1[N+](=O)[O-] | -14 | . | 9 | . | .
CS(=O)(=O)CCC(C(=O)OCc1ccc(Br)cc1)N1C(=O)c2ccccc2C1=O (centres undefined) | -0.9 | -3% | 8 | -22 | 3
O=C(Nc1ccc(S(=O)(=O)N2CCOCC2)cc1)C1CCN(S(=O)(=O)c2ccccc2)CC1 | 1.1 | . | -3 | . | .
